# Bioassay records (PubChem)
# Vaccinia Venus – inhibitors of vaccinia virus (Venus reporter); Vaccinia virus Venus reporter expression, fluorescence; Potency, µM (series often up to 36.5 µM), without a hit: top-dose activity change, negative = inhibition, hits mostly inhibitors; 330,000 tested, 0.46% active; AID 720580; active means well fitted inhibition curve with a large enough effect; inconclusive means small, poorly fitted or top-dose-only effect; inactive means no such curve, though single readings can be large or run the other way; tested in A549 cells; note: nearly all actives have a fitted effect of over 30% in size; inactives centre near -10
# VACV mCherry inh – vaccinia inhibition (mCherry reporter). AID 720579. 310,000 tested, 0.63% active. Potency, µM (series often up to 36.5 µM), inactives show at the highest dose activity change, negative = inhibition, hits mostly inhibitors. Vaccinia virus mCherry reporter infection, fluorescence; about a quarter of the inactives have no number; active = well fitted inhibition curve with a large enough effect; inconclusive = small, poorly fitted or top-dose-only effect; inactive = no such curve, though single readings can be large or run the other way; tested in A549 cells; note: nearly all actives have a fitted effect of over 35% in size; inactives centre near -10
# * hit, by the source's call; i = inactive; ? = inconclusive; . = no result given; & = joins results of further samples; [ ] = remark or other dose. % is set by controls: 0 for no effect and ±100 for the full control effect; potency is the fitted concentration of half-maximal effect.
# Each structure is followed by: Vaccinia Venus	VACV mCherry inh
CN(/C(=N\S(=O)(=O)c1ccccc1)C(F)(F)F)c1ccccc1
→ -11%	.
CN1CC[C@]23c4c5ccc(O)c4OC2C(O)C=CC3[C@H]1C5 (some centres undefined)
→ -14%	i
Cc1c(Cl)c([N+](=O)[O-])nn1CC(=O)NCc1cccnc1
→ -7%	-30%
CCOc1ccc(OCc2cccc(C(=O)N3CCCC3)c2)cc1
→ -2%	i
O=C(NCCN1CCOCC1)C(=O)NCC1OCCN1S(=O)(=O)c1ccccc1 (centres undefined)
→ -14%	-11%
CCOc1ccccc1OCCCC(=O)NNC(=O)c1ccc(F)cc1
→ -16%	-12%
O=C(CN1C(=O)CSc2ccc(S(=O)(=O)N3CCOCC3)cc21)NCCc1ccccc1
→ -14%	i
CCNC(=O)CCSc1nnc(-c2ccncc2)o1
→ -3%	i
CC(=O)Nc1ccc(S(=O)(=O)N2CCN(Cc3cccc([N+](=O)[O-])c3)CC2)cc1
→ -5%	-29%
CCCNC(=S)Nc1ccccc1
→ -10%	i
COc1ccc(-c2c(-c3ccsc3)oc(=O)c3cc(OC)c(OC)cc23)cc1
→ -12%	i
CCc1c(C(=O)N/N=C/c2ccc(OCc3ccc(F)cc3)c(OC)c2)nnn1-c1nonc1N
→ -5%	1%
CCOCCCNS(=O)(=O)c1ccc(NC(=O)c2ccccc2)cc1
→ -13%	-7%
CCOP(=O)(c1c(F)c(F)c(F)c(F)c1F)C(O)c1ccccc1 (centres undefined)
→ -20%	.
Cc1cccnc1NC(=O)c1ccc(NS(=O)(=O)c2ccc3[nH]c(=O)[nH]c3c2)cc1
→ -5%	-7%

# Brought forward from above: six entries, then new ones.
# Each structure is followed by: Vaccinia Venus	VACV mCherry inh
CCCNC(=S)Nc1ccccc1
→ -10%	i
COc1ccc(-c2c(-c3ccsc3)oc(=O)c3cc(OC)c(OC)cc23)cc1
→ -12%	i
CCc1c(C(=O)N/N=C/c2ccc(OCc3ccc(F)cc3)c(OC)c2)nnn1-c1nonc1N
→ -5%	1%
CCOCCCNS(=O)(=O)c1ccc(NC(=O)c2ccccc2)cc1
→ -13%	-7%
CCOP(=O)(c1c(F)c(F)c(F)c(F)c1F)C(O)c1ccccc1 (centres undefined)
→ -20%	.
Cc1cccnc1NC(=O)c1ccc(NS(=O)(=O)c2ccc3[nH]c(=O)[nH]c3c2)cc1
→ -5%	-7%
Cc1ccc(CNC(=O)c2cc3c(=O)n4cccc(C)c4nc3s2)cc1
→ 5%	-6%
COc1ccccc1NC(=O)c1cn(-c2ccccc2)nc1-c1ccccc1
→ -1%	i
Oc1ccc(/C=N/n2c(-c3ccco3)csc2=Nc2cccnc2)c(O)c1
→ 10µM*	10µM*
COc1ccc(CSCCc2n[nH]c(=S)n2-c2ccccc2)cc1
→ -10%	-11%
COc1ccc(OC)c(NC(=O)CSc2ccc3nnc(-c4cccnc4)n3n2)c1
→ 0%	i
CCOc1ccc(-c2nc(SCC(=O)Nc3ccc4c(c3)OCCO4)c(-c3ccc(F)cc3)[nH]2)cc1
→ ?	?
COc1ccc(N2CCN(C(=O)c3ccc4c(c3)OCO4)CC2)cc1
→ -9%	-24%
O=C(NCc1ccccc1)C1(CC2CC(c3ccccc3)=NO2)CCNCC1 (centres undefined)
→ -17%	19%
O=C([C@@H]1C[C@@H](Sc2nc3ccccc3[nH]2)CN1CC1CCCCC1)N1CCOCC1
→ -7%	-7%
CC(=O)OCC1=C(C(=O)O)N2C(=O)C(NC(=O)Cn3nc(C(F)F)c(Cl)c3C)C2SC1 (centres undefined)
→ 1%	12%
CCOc1ccc(S(=O)(=O)N2CCCCC2)cc1NC(=O)C1COc2ccccc2O1 (centres undefined)
→ -21%	-12%
Cc1ccc(-n2c(SCc3ccccc3F)nc3[nH]ncc3c2=O)cc1C
→ -11%	-8%
CCOc1ccc(CCN2C(=O)C(=O)N([C@@H](CC(C)C)CN3CCC[C@H]3CN3C(=O)C(=O)NC[C@@H]3Cc3ccc(O)cc3)C[C@@H]2Cc2ccccc2)cc1
→ 6%	1%
CC(C)N1CCCC(C)(C(=O)Nc2nc3ccccc3n2C)C1 (centres undefined)
→ 1%	16%
COc1ccc(CNC(=O)c2[nH]c(C(F)(F)F)nc2-c2ccccc2)cc1
→ -17%	i

# Entries listed so far that contain a thiophene ring, fused or not:
# Each structure is followed by: Vaccinia Venus	VACV mCherry inh
COc1ccc(-c2c(-c3ccsc3)oc(=O)c3cc(OC)c(OC)cc23)cc1
→ -12%	i
Cc1ccc(CNC(=O)c2cc3c(=O)n4cccc(C)c4nc3s2)cc1
→ 5%	-6%

# An excerpt from the list above:
# Each structure is followed by: Vaccinia Venus	VACV mCherry inh
CCc1c(C(=O)N/N=C/c2ccc(OCc3ccc(F)cc3)c(OC)c2)nnn1-c1nonc1N
→ -5%	1%
CCOCCCNS(=O)(=O)c1ccc(NC(=O)c2ccccc2)cc1
→ -13%	-7%
CCOP(=O)(c1c(F)c(F)c(F)c(F)c1F)C(O)c1ccccc1 (centres undefined)
→ -20%	.
Cc1cccnc1NC(=O)c1ccc(NS(=O)(=O)c2ccc3[nH]c(=O)[nH]c3c2)cc1
→ -5%	-7%
Cc1ccc(CNC(=O)c2cc3c(=O)n4cccc(C)c4nc3s2)cc1
→ 5%	-6%
COc1ccccc1NC(=O)c1cn(-c2ccccc2)nc1-c1ccccc1
→ -1%	i

# Going on with the list:
# Each structure is followed by: Vaccinia Venus	VACV mCherry inh
CCCNC(=O)C1(C)CCN(Cc2ccc3ccccc3c2Br)C1 (centres undefined)
→ -6%	37%[activator]
COCCn1c(SCC(=O)NCC(c2ccccc2)N(C)C)nc2sc3c(c2c1=O)CCC3 (centres undefined)
→ -17%	i
CCOC(=O)c1c(NC(=O)c2cc(-c3ccc(Br)cc3)on2)sc(C(C)=O)c1C
→ -4%	-5%
O=C(COC(=O)c1cc(=O)[nH]c2ccccc12)NC1CCCCCCC1
→ -13%	-10%
O=c1[nH]c(CSc2ncnc3sc(-c4ccccc4)cc23)nc2ccccc12
→ 2%	?
CCOc1ccc(-c2cccc(NC(=O)c3ccco3)c2)nn1
→ -15%	-3%
COC(=O)C1=C(c2ccc(OC)c(OC)c2)C[C@@H]2CC[C@H]1N2C(=O)NCC1CC1
→ -9%	i
Cc1ccccc1-c1noc(-c2ccc(N3CCC(C)CC3)c([N+](=O)[O-])c2)n1
→ -4%	-8%
CS(=O)(=O)c1ccc2nc(NC(=O)c3ccco3)sc2c1
→ -28%	-14%
Cc1ccc(/C=C/C(=O)O)cc1S(=O)(=O)N1CCc2ccccc2C1
→ -4%	-5%
O=C(NCCC1=CCCCC1)c1ccc2c(=O)n3c(nc2c1)CCCCC3
→ -15%	-12%
CCCc1nc(SCC(=O)N2c3ccccc3CC2C)c2c(C)c(C)sc2n1 (centres undefined)
→ -1%	-2%
CCOC(=O)c1sc(NC(=O)C(CC)Sc2nccn2C)nc1C (centres undefined)
→ -18%	-12%
CN1CCN(c2nnc(-c3ccc(F)cc3)c3ccccc23)CC1
→ -11%	?
COc1cccc(-c2cn3c(n2)sc2cc(C(=O)NCc4cccs4)ccc23)c1
→ -13%	-18%
N#CCN1CCN(CC(=O)c2ccc(Br)cc2)CC1
→ -10%	i
CCCSc1nsc(NC(=O)CC)n1
→ -12%	i
CCC(C)NC(=O)c1c(C)oc2ncn(CC(C)C)c(=O)c12 (centres undefined)
→ -6%	-17%
COc1cccc(-n2nc(C#N)c(Cl)cc2=O)c1
→ 18µM*	?
COc1ccccc1NC(=O)C(Cc1ccccc1)NS(=O)(=O)c1ccc2c(c1)c(=O)n(C)c(=O)n2C (centres undefined)
→ -5%	-15%
CNC(=O)c1ccccc1NC(=O)c1ccco1
→ -4%	.
Cc1ccc(-n2nnnc2SC(C)C(=O)Nc2ccccc2-c2ccccc2)cc1 (centres undefined)
→ 2%	i
O=C(O)c1sccc1OCc1ccccc1
→ -7%	i
COc1ccc(S(=O)(=O)N(C)CC(=O)N2CCCCC2)cc1Cl
→ -20%	-19%[1.46 µM]
COc1ccc(S(=O)(=O)N2CCC(C(=O)NCCCn3ccnc3)CC2)cc1C
→ -22%	-21%
COC(=O)Cc1cccc2c(=O)c3ccccc3oc12
→ 0%	i
O=C(CSc1nnc(Cn2nnc3ccccc32)o1)N(Cc1ccc(Cl)cc1)c1ccccc1
→ ?	?
CCOc1cc(C)ccc1OCc1nnc(SCC(=O)c2cccc([N+](=O)[O-])c2)n1C
→ -24%	-5%
Cc1cc(=O)[nH]c(SCC(=O)NCCOc2ccccc2)n1
→ -9%	i
Cc1ccc(C)c(CNC(=O)c2cc3ccccn3n2)c1
→ -2%	0%
Cc1ccccc1NC(=O)Nc1nnc(Cc2ccc([N+](=O)[O-])cc2)s1
→ -13%	-4%
Cc1ccccc1C1CC(=O)Oc2cc(O)ccc21 (centres undefined)
→ 94%[activator]	27%
COc1cc(NC(C)CCCN)c2ncccc2c1 (centres undefined)
→ -14%&1%	-11%
COCCCNC(=S)NNC(=O)c1cc(-c2ccncc2)nc2ccccc12
→ 0%	-13%
O=C(NCc1nnc2n1CCN(Cc1cc(F)cc(F)c1)CC2)c1cccc(F)c1
→ -26%	?
Cc1c(NC(=S)NC(=O)c2ccc(COc3ccccc3)cc2)cccc1C(=O)O
→ -5%	-13%
O=C(OCCN=C1NS(=O)(=O)c2ccccc21)c1ccncc1
→ -9%	-10%
Cc1ccc(NC(=O)c2cccc3ccccc23)cc1
→ -10%	i
CC1(c2ccc([N+](=O)[O-])cc2)NC(=O)N(CC(=O)c2ccc3c(c2)OCO3)C1=O (centres undefined)
→ -8%	-15%
COc1ccc(CNCC(O)(c2ccccc2)c2ccc(F)cc2)cc1OC (centres undefined)
→ -11%	4%
Cc1cc(N2C(=O)C(O)=C(C(=O)c3ccco3)C2c2cccc(O)c2)no1 (centres undefined)
→ 9%[7.34 µM]	-4%[7.34 µM]
CCc1nnc(NC(=O)CCNC(=O)c2ccccc2Cl)s1
→ -6%	-9%
COc1cc(/C=C/C(=O)OCC(=O)N2CCCCCC2)cc(OC)c1OC
→ -1%	i
OC(c1cc(F)cc(Cl)c1)c1ncc(-c2ccccc2Cl)[nH]1 (centres undefined)
→ -12%	6%
CCN(CC)CCn1c2c(c(SCC(=O)Nc3ccc4c(c3)OCO4)nc1=O)CCC2
→ -10%	-12%
O=C(NCc1cccc(Cl)c1)c1cccc(S(=O)(=O)N2CCCC2)c1
→ -13%	-7%
O=C(Cc1ccccc1)NC1CCN(S(=O)(=O)c2ccc(C(=O)O)cc2)CC1
→ -10%	-11%
CCCc1noc(-c2ccc(NCc3ccccc3OC)c([N+](=O)[O-])c2)n1
→ -10%	-21%
CC1Cc2ccccc2N1C(=O)CSc1nnc(Cc2ccccc2)n1CCc1ccccc1 (centres undefined)
→ ?	-29%
O=C1N(c2ccccc2)C(=Nc2ccccc2)SC12CC2
→ -13%[7.34 µM]	i[7.34 µM]
CC(=O)OC[C@H]1O[C@@H](Sc2cccc3cccnc23)[C@H](OC(C)=O)[C@@H](OC(C)=O)[C@H]1OC(C)=O
→ -14%	i
Cc1cc(C)c2c(=O)[nH]n(C3CCCCCC3)c2n1
→ 1%	-3%
Cc1c(OC(C)C(=O)NCC2CCC(C(=O)O)CC2)ccc2c1oc(=O)c1ccccc12 (centres undefined)
→ 5%	-11%
COc1ccc(CCNC(=O)c2cc(-c3ccc(Cl)c(Cl)c3)oc2C)cc1
→ -15%	-15%
CC(O)[C@H]1CNC(=O)C(=O)N1CC1(c2ccccc2)CC1 (some centres undefined)
→ 2%	i
CN1CCN(c2nc(-c3cccnc3)nc3ccccc23)CC1
→ -10%	-11%
COc1cc(C(=O)NCCCNc2ccc([N+](=O)[O-])cc2)cc(OC)c1OC
→ -19%	0%
COc1ccc(C#Cc2ccc3c(=O)c4ccccc4n(C)c3c2)cc1
→ ?	-25%
CC(=O)c1c(C(C)=O)c(C)n(NC(=O)c2ccncc2)c1C
→ -10%	i
COC(=O)[C@]1(C)N[C@H](CN(C)C(=O)c2ccc(C)cc2)[C@@H]2C(=O)N(Cc3ccccc3)C(=O)[C@@H]21
→ -18%	i

# Next structures:
# Each structure is followed by: Vaccinia Venus	VACV mCherry inh
CC(C)(O)[C@H](O)COc1c2occc2cc2ccc(=O)oc12
→ -2%	-22%
CN(C)CC(C)(C)CNS(=O)(=O)c1cccc2nsnc12
→ -12%	i
COc1ccc(C2c3c(n(C)c4ccccc34)C(=O)N2CC(=O)Nc2cc(Cl)ccc2C)cc1 (centres undefined)
→ -7%	i
O=C(NCc1ccccc1)C(c1ccc(F)cc1)N(Cc1cccs1)C(=O)c1cnccn1 (centres undefined)
→ -3%	i
CC(C)C[C@@H](COCc1cccc(Cl)c1)N1CCN(C(=O)c2ccc(C(F)(F)F)cc2)CCC1=O
→ -7%	19%
Cn1c(=O)[nH]c(=O)c2c1nc(Br)n2Cc1ccccc1F
→ -3%	i
CCN(CC)C(=O)CCSc1nnc(-c2ccncc2)o1
→ -13%	-3%
COc1ccc(S(=O)(=O)N2Cc3ccccc3CC2C(=O)Nc2ccc(C)cc2)cc1OC (centres undefined)
→ 2%	6%
CCOC(=O)N1CCN(C(=O)CCCn2c(=S)[nH]c3ccsc3c2=O)CC1
→ 7%	11%
CN1C2C=C(N(C(=O)c3ccc(Cl)cc3)c3ccccc3)CC1CC2 (centres undefined)
→ -14%	.
CCCCCCn1c(=O)n2n(c1=O)[C@@H]1CN(S(=O)(=O)c3ccc(C)cc3)C[C@]1(O)[C@@H](OC(=O)NC1CCCC1)C2
→ -28%	-11%
Cc1nc(C(F)(F)F)ccc1C(=O)N1CCC1(C)C(=O)NS(=O)(=O)c1ccccc1 (centres undefined)
→ -5%	i
